VDR inhibitor: blocks the human vitamin D receptor | VDR-SRC2-3 peptide fluorescence polarization, 2 h | P11473 | Potency, µM, for inactives: max response, negative = inhibition, hits mostly inhibitors | AID 504847 | hit rate 0.93% among 400,000; active = well fitted inhibition curve with a large enough effect; inconclusive = small, poorly fitted or top-dose-only effect, or another doubt; inactive = no such curve, though single readings can be large or run the other way; also: series mostly up to about 120 µM
Target sequence (P11473 whole entry, looked up): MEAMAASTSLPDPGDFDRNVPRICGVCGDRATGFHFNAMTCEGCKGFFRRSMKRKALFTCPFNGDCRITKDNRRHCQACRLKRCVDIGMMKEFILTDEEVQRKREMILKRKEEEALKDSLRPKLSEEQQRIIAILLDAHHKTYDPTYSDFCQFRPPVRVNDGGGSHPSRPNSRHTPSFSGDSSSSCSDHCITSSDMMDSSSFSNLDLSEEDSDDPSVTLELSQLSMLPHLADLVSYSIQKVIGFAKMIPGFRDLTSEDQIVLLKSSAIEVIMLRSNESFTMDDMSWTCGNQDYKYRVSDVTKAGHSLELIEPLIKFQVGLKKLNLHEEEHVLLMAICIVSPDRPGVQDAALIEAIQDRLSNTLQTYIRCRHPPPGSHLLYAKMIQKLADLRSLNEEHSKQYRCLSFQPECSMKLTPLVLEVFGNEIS
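Compounds are added to VDR with labelled SRC2-3 coactivator peptide and held 2 h at room temperature. Inhibition of the VDR–peptide interaction is then read as a change in fluorescence polarization.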
The depositor's hits bear a star; ? = inconclusive; & = joins results of further samples. % is scaled to controls: 0 for no effect and ±100 for the full control effect; potency is read from the fitted curve at half-maximal effect. These rows are one share of the data; count on the stated rates, not on these rows.

| compound | VDR inhibitor |
| --- | --- |
| CC[C@]12CCCN3CCc4c(n(c5ccccc45)C(=O)C1)[C@@H]32 | -11% |
| CC[C@]1(c2ccccc2OC)ON(c2ccccc2C(F)(F)F)C1=O | 6% |
| O=C(N/N=C\c1ccc(-c2ccc([N+](=O)[O-])cc2)o1)c1ccc2c(c1)OCO2 | -12% |
| Cc1ccc(C)c(N(CC(=O)NC2CCCC2)C(=O)c2cc3cc4cccc(C)c4nc3s2)c1 | 1% |
| CCOC(=O)c1[nH]c2ccc(F)cc2c1NC(=O)CCN1CCOCC1 | ? |
| Cc1ccc(S(=O)(=O)N(C)CC(=O)OCC(=O)Nc2ccccc2)cc1 | -10% |
| COc1ccccc1OCC(=O)NN=C(Cc1ccccc1)Cc1ccccc1 | -9% |
| CC(C)(C)c1cc(-n2ccnc2)n2ncc(-c3ccc(Cl)cc3)c2n1 | -10% |
| COc1ccc(NC(=O)Nc2c[nH]c(=O)[nH]c2=O)c(OC)c1 | 16% |
| Cc1ccc2c(c1)-c1nc(-c3ccc4c(c3)NC(=O)CO4)cc(-c3ccccc3)c1CO2 | -1% |
| Cc1ccc(C)c(NC(=O)CSc2nc(=O)n(Cc3ccccn3)c3c2CCC3)c1 | 8% |
| NC(=O)CC(NC(=O)Cc1ccc(Cl)cc1)c1ccc(N2CCC(Cc3ccccc3)CC2)c([N+](=O)[O-])c1 (configuration not stated) | 13% |
| Cc1cc(C)n(-c2cc(C(C)(C)C)nc3c(-c4ccc(Cl)cc4)cnn23)n1 | -2% |
| N#Cc1nc(COc2ccc(Br)cc2)oc1N1CCCCCC1 | -17% |
| Cc1c(C#N)c2ccccc2n1CC(=O)NCCc1c[nH]c2ccccc12 | 1% |
| Cc1ccc(C(=O)COC(=O)C(C)N2C(=O)C3C4CCC(C4)C3C2=O)cc1C (configuration not stated) | -4% |
| NC(=O)CSc1nnc(-c2ccccc2Br)n1-c1cccc(C(F)(F)F)c1 | -26% |
| CCOC(=O)c1ccccc1NC(=O)COC(=O)C1CC(=O)N(c2ccc3c(c2)OCCO3)C1 (configuration not stated) | -10% |
| CC(=O)/C(C#N)=C1\NC(=O)C(Cc2ccc(C)c(C)c2)S1 (configuration not stated) | -2% |
| Oc1cccc(N2Cc3ccccc3C2)c1 | -5% |
| Cc1ccc2oc(=O)c3cnn(CC(=O)N4CCN(c5cc(Cl)ccc5C)CC4)c3c2c1 | -29% |
| O=c1c2ccccc2nc(-c2cccs2)n1-c1ccc2ccccc2c1 | -3% |
| CCc1ccc(Nc2n[n+](-c3ccccc3)c(-c3ccc(N(CC)CC)cc3)s2)cc1 | -4% |
| CCOc1ccc(NC(=O)C[n+]2ccc(N(C)C)cc2)cc1 | 4% |
| O=C(O)CCC(=O)Nc1ccc(-n2ccc(C(F)(F)F)n2)cc1 | 6% |
| O=C(Nc1cc(Cl)cc(Cl)c1)c1ccc(F)c(S(=O)(=O)NCc2ccccc2Cl)c1 | 11% |
| O=C(NNS(=O)(=O)c1cc(Cl)c(Cl)cc1Cl)c1cccnc1 | -14% |
| Oc1cccc(/C=C/c2ccc3cccc(O)c3n2)c1 | 1% |
| Cn1nc(-c2ccccc2)nc1-c1ccccc1 | -11% |
| O=C(O)c1ccc(N=c2oc3cc(O)ccc3cc2C(=O)NCc2ccccc2)cc1 | -6% |
| CCc1nc(NC(C)(C)C)c2cnn(-c3ccccc3)c2n1 | 0% |
| CC(C)(C)C(=O)Cn1c(=O)n(CC2CCCO2)c(=O)c2ccccc21 (configuration not stated) | -18% |

Compounds from the list above containing an NH in an aromatic ring, in the order listed:
| compound | VDR inhibitor |
| --- | --- |
| CCOC(=O)c1[nH]c2ccc(F)cc2c1NC(=O)CCN1CCOCC1 | ? |
| COc1ccc(NC(=O)Nc2c[nH]c(=O)[nH]c2=O)c(OC)c1 | 16% |
| Cc1c(C#N)c2ccccc2n1CC(=O)NCCc1c[nH]c2ccccc12 | 1% |

(cont.)
| compound | VDR inhibitor |
| --- | --- |
| O=C(N/N=C/c1ccc(Br)o1)c1cncc(Br)c1 | -7% |
| Cc1c(C)c2ccc(OCC(=O)NCCN3CCOCC3)c(C)c2oc1=O | 12% |
| COC(=O)[C@H](CCSC)NC(=O)Cn1cnc2c(NCc3ccccc3)ncnc21 | -14% |
| COc1ccc(Br)cc1CNC(=O)Nc1cccs1 | -16% |
| Cc1ccc(NC(=O)Nc2ccc(S(N)(=O)=O)cc2)cc1 | -12% |
| O=C(NCc1ccncc1)C(=O)NCC1OCCN1S(=O)(=O)c1cc(F)ccc1F (configuration not stated) | 9% |
| CN(C)Cc1c(O)ccc2[nH]cnc12 | 0% |
| COC(=O)c1ccccc1NC(=O)CSc1nc(-c2ccccc2)cc(C(F)(F)F)n1 | -5% |
| CCN(CC)S(=O)(=O)c1ccc2c(c1)nc(CCC(=O)OCc1c(C)noc1C)n2C | 17% |
| CCOC(=O)N/N=C/c1c[nH]c2ccccc12 | 0% |
| Cc1c(Cl)cccc1NC(=O)c1ncoc1-c1ccco1 | 7% |
| COc1cc(/C=N/O)cc(Br)c1OCc1cccc(Cl)c1 | 4% |
| O=C(N/N=C1\CC2CC=CC12)c1ccc(Br)cc1 (configuration not stated) | -22% |
| CCOc1ncccc1C(=O)OCC(=O)NC(=O)c1ccccc1 | -1% |
| CCOC(=O)c1c(C)[nH]c(C)c1C(=O)COC(=O)[C@@H](NC(=O)c1ccccc1OCC)C(C)C | 9% |
| COc1ccc(CN2CCSCC2)cc1O | -7% |

Gathered by group: the entries above with a thiophene ring, fused or not
| compound | VDR inhibitor |
| --- | --- |
| Cc1ccc(C)c(N(CC(=O)NC2CCCC2)C(=O)c2cc3cc4cccc(C)c4nc3s2)c1 | 1% |
| O=c1c2ccccc2nc(-c2cccs2)n1-c1ccc2ccccc2c1 | -3% |
| COc1ccc(Br)cc1CNC(=O)Nc1cccs1 | -16% |

Single entries from the list.
In VDR inhibitor, Cc1ccc(C)c(NC(=O)CSc2nc(=O)n(Cc3ccccn3)c3c2CCC3)c1 is entered as 8%
In VDR inhibitor, O=C(NCc1ccncc1)C(=O)NCC1OCCN1S(=O)(=O)c1cc(F)ccc1F (configuration not stated) is entered as 9%
In VDR inhibitor, O=C(N/N=C1\CC2CC=CC12)c1ccc(Br)cc1 (configuration not stated) is entered as -22%
In VDR inhibitor, CC(=O)/C(C#N)=C1\NC(=O)C(Cc2ccc(C)c(C)c2)S1 (configuration not stated) is entered as -2%

Of the compounds above, these have a cyano group:
| compound | VDR inhibitor |
| --- | --- |
| N#Cc1nc(COc2ccc(Br)cc2)oc1N1CCCCCC1 | -17% |
| Cc1c(C#N)c2ccccc2n1CC(=O)NCCc1c[nH]c2ccccc12 | 1% |
| CC(=O)/C(C#N)=C1\NC(=O)C(Cc2ccc(C)c(C)c2)S1 (configuration not stated) | -2% |

Later entries.
| compound | VDR inhibitor |
| --- | --- |
| Cc1ccc(C)c(NC(=O)c2ncn[nH]2)c1 | 3% |
| O=C(O/N=C/c1ccc2c(c1)OCO2)c1ccc([N+](=O)[O-])cc1 | 1% |
| O=c1c(-c2ccc(Oc3ccccc3)cc2)[n+]([O-])c2ccccc2n1OCc1ccccn1 | -13% |
| CN(CC(=O)NC1CCCCCC1)S(=O)(=O)c1ccc(F)cc1 | -5% |
| CCc1[nH]nc2c1C1(CCN(C(=O)OCc3ccccc3)CC1)C(C#N)=C(N)O2 | -11% |
| Cc1ccc(N(C)C(=O)C2CCN(S(=O)(=O)c3ccc4c(c3)oc(=O)n4C)CC2)cc1 | -5% |
| COc1ccc(NS(=O)(=O)NC(=O)c2c(C)n(C)c3ccccc23)cc1 | 9% |
| Cc1onc(-c2c(F)cccc2Cl)c1C(=O)NC(=S)Nc1c(C)n(C)n(-c2ccccc2)c1=O | 9% |
| Cc1nnc(NC(=O)CSc2ncnc3c2cnn3-c2ccccc2C)s1 | 7% |
| COc1ccc(S(=O)(=O)c2ccccc2)cc1NS(=O)(=O)c1cccc(C(=O)O)c1 | -10% |
| CCc1nn(CC(=O)NCCc2ccc(Cl)cc2)c(=O)c2cc3ccccc3n12 | 12% |
| Cc1ccc(CC2CC(=O)N(Cc3ccco3)C2=O)cc1 (configuration not stated) | ? |
| CCOc1cc(C#N)ccc1OCC(=O)NNC(=O)CC1CCS(=O)(=O)C1 (configuration not stated) | 17% |
| O=C(Nc1cccc2cccnc12)c1cccc2c(Br)cccc12 | 3% |
| O=C(Nc1cc(-c2nc3ccccc3o2)ccc1Cl)c1sc2c([N+](=O)[O-])cccc2c1Cl | -11% |
| O=C(C[n+]1ccccc1)N/N=C/c1ccccc1F | -27% |
| O=C1OC(Cc2ccncc2)C(O)=C1C1=NCCCN1 (configuration not stated) | 2% |
| COc1ccc(OC)c(S(=O)(=O)Nc2cccc(O)c2)c1 | -11% |
| CCNc1ncc2nc(-c3ccccc3)c(=O)n(C)c2n1 | ? |
| CCOC(=O)CCc1c(C)c2ccc(OCC(=O)N(CC)CC)c(C)c2oc1=O | 8% |
| O=C(c1c(O)cc(O)cc1O)C1c2c(cc(O)c3c2O[C@H](c2ccc(O)cc2)[C@@H](O)C3)OC1c1ccc(O)cc1 (some centres not stated) | ? |
| O=[N+]([O-])c1ncccc1OCc1ccccc1Br | 12% |
| Cc1ccc(C)c(C(=O)N(Cc2nc(-c3ccc(Cl)cc3)no2)C(C)C)c1 | -4% |
| CCOc1ccccc1NC(=O)CC1Nc2ccccc2NC1=O (configuration not stated) | 7% |
| COc1ccc(/C=C/c2nnc(NC(=O)CSc3ccc(Cl)cc3)s2)cc1 | -17% |
| Cc1[nH]c(=O)[nH]c(=O)c1/C=N/NC(=O)CCCCCNC(=O)OC(C)(C)C | 7% |
| CSCC[C@H](NC(=O)[C@H](Cc1ccccc1)n1c(=O)[nH]c2ccccc2c1=O)C(=O)N[C@@H](Cc1ccccc1)C(=O)O | ? |
| Cc1cc(CNC(=O)C(C)Cc2ccccc2)nn1C (configuration not stated) | -15% |
| CC(=O)Nc1ccc(C=NN=C2c3ccccc3-c3ccccc32)cc1 | -1% |
| O=C1C=C(c2cnc3ccccc3c2)C[C@@H](c2ccc3c(c2)OCO3)C1 | -1% |
| CCOc1ccccc1NC(=O)C1CCN(S(=O)(=O)c2cccs2)CC1 | -10% |
| Cn1c(=O)c2[nH]c(C3CCCC3)nc2n(C)c1=O | -2%&-14% |
| COc1ccc2c(c1OC)C(=O)N1c3ccccc3C(=O)N(c3ccccc3)C21 (configuration not stated) | 1% |
| COc1cccc(NC(=O)CCSc2nc(-c3ccco3)cc(C(F)(F)F)n2)c1 | -22% |
| CC(C(=O)Nc1cccnc1)c1ccc([N+](=O)[O-])cc1 (configuration not stated) | -8% |
| O=C(CSc1nnc(NC(=O)C2CCC2)s1)Nc1ccccc1F | 0% |
| COc1ccc(NC(=O)N2CCNC(=O)C2CC(=O)Nc2ccc(F)cc2)cc1 (configuration not stated) | 5% |
| CC1(C)Cc2c(c(N3CCOCC3)nc3sc(C#N)c(N)c23)CS1 | 3% |
| CSCCOC(=O)COc1ccc(/C=N/NC(=O)c2c(Cl)cnn2C)cc1 | -5% |
| COCCN(C(=O)CC1C(=O)NCCN1CC(c1ccccc1)c1ccccc1)C(C)C (configuration not stated) | 6% |
| CC1(C)CC(=O)c2sc(NS(=O)(=O)c3ccc(Cl)cc3)nc2C1 | -15% |
| CC#CC(=O)N1CCC(CO)(CCc2ccccc2)CC1 | -15% |
| C=CCOC(=O)c1cc(-c2ccc(/C=C3\C(=O)NC(=O)C(C#N)=C3C)o2)ccc1Cl | 25µM* |
| COc1ccc(N=Nc2c(N)n[nH]c2N)cc1 | -14% |
| Cc1ccc(S(=O)(=O)c2nc(-c3ccc(F)cc3)oc2SCC(=O)c2ccccc2)cc1 | 11% |
| O=C(CC(c1ccccc1)c1ccccc1O)NCc1ccccc1Cl (configuration not stated) | -5% |
| CCOc1ccccc1Nc1cc(C)nc2ccc(C)cc12 | 1% |
| CCOC(=O)/C=C/C(=O)OCC(=O)Nc1c(Cl)cccc1Cl | ? |
| Cc1cccn2c(=O)cc(COc3cccc(NC(=O)COc4ccccc4)c3)nc12 | 17% |
| CCCCC(C)/C=C(C)/C=C(\C)C(=O)NC1=CC(O)(/C=C/C=C/C=C/C(=O)NC2=C(O)CCC2=O)C2OC2C1=O (configuration not stated) | ? |
| Cc1cc(NC(C)c2ccccc2)n2ncc(-c3ccccc3)c2n1 (configuration not stated) | 6% |
| CC(C)(CO)Nc1ncnc2onc(-c3ccc(F)cc3)c12 | -4% |
| CCC(C)NC(=O)c1ccccc1NS(=O)(=O)c1ccc(OC)c(OC)c1 (configuration not stated) | 16% |
| CCc1ccccc1N1C(=O)CN(Cc2cc(OC)c(OC)c(OC)c2)C1=S | 0% |
| CCOC(=O)N1CCN(C(=O)CN(c2ccc(C)c(C)c2)S(=O)(=O)c2ccccc2)CC1 | 0% |
| COc1ccc(C(=O)NN=C2CCCC2)c(OC)c1 | -2% |

Going on with the list:
| compound | VDR inhibitor |
| --- | --- |
| Nc1nc(=S)n(-c2ccccc2)[nH]1 | -12% |
| COc1cc2cc3c4cc(OC)c(OC)cc4cc[n+]3c(C)c2cc1OC | -14%&6% |
| O=C(CN1C(=O)C2C3C=CC(C3)C2C1=O)Nc1ccc(C(=O)O)cc1 (configuration not stated) | 10% |
| C=C1CCN(c2ccc(C(=O)NCCC)cc2[N+](=O)[O-])CC1 | -7% |
| O=C(CNCC1CCCO1)NCc1ccco1 (configuration not stated) | 7% |
| O=C(Nc1ccc2c(c1)C(=O)N(c1ccccc1)C2=O)C1CCCO1 (configuration not stated) | 8% |
| Cc1oc2c(CN3CCCCC3)c(O)ccc2c(=O)c1-c1ccc(Br)cc1 | -2% |
| COC(=O)c1cnc(SCC(=O)c2ccccc2)n1C | -5% |
| COc1cccc(NC(=O)C2=COCCO2)c1 | -3% |
| O=C(OCC(=O)N1CCN(c2ccccc2)CC1)c1ccco1 | -14% |
| Cc1cc(-c2ccc(C)c(S(=O)(=O)Nc3cccc(C#N)c3)c2)on1 | 3% |
| O=C(Cc1coc2cc(O)ccc12)NNC(=O)c1ccc(Br)s1 | -27% |
| [O-][n+]1cccc(CO)c1 | 3% |
| CN(Cc1cccc(F)c1)C(=O)Cc1ccc(S(=O)(=O)N2CCOCC2)s1 | ? |

Screens (PubChem)
